GIRK2 activ: opens human GIRK2 potassium channels; P48051; HEK293-GIRK2 thallium flux, Thallos fluorescence; calls only for hits at 25 µM; 0.05% of 63,000 active;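 active = among the strongest 0.2% of first-round signals and kept after retests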;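 also: first round at about 10 µM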
Target sequence (P48051 whole entry, looked up): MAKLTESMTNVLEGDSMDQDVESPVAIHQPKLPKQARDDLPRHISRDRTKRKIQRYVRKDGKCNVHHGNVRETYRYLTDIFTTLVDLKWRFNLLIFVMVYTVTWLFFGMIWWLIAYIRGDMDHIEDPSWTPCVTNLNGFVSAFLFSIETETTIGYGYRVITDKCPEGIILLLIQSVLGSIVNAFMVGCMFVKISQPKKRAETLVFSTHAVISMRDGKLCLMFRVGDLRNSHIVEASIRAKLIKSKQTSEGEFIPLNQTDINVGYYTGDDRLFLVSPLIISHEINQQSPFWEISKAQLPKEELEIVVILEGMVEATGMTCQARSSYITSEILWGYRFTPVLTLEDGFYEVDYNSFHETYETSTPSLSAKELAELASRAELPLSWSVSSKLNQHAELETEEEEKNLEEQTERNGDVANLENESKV
Calls only; i = inactive. The list is partial. The share of hits here may be higher or lower than overall.

| compound | GIRK2 activ |
| --- | --- |
| CCOc1ccccc1C(=O)NC1CCN(C(=O)c2cn[nH]c2-c2ccc(F)cc2)CC1 | i |
| Cn1c(=O)c(C(=O)Nc2ccc(Br)cc2F)c(O)c2sccc21 | i |
| C=C(C)COc1ccc2c(c1)O/C(=C\c1cccs1)C2=O | i |
| NC(=O)CSc1nnc2ccc3ccccc3n12 | i |
| CCOC(=O)Cn1c(=O)c2c(nc3n(-c4ccccc4CC)c(-c4ccccc4)cn23)n(C)c1=O | i |
| Cn1nnnc1SCC(=O)N1CCC(Oc2ccc(Cl)cn2)CC1 | i |
| O=C(CCc1ccccc1)N1CCC(Cn2ccnc2)CC1 | i |
| CCCc1cc(-n2ncc(C(=O)OCC)c2N)n2nc3nc(C)cc(C)c3c2n1 | i |
| CC(C)c1ccc(NC(=O)c2cn(Cc3ccc(NC(=O)c4ccccc4F)cc3)cn2)cc1 | i |
| COc1ccc(CCC(=O)Nc2ccc3nc(C)n(-c4ccc(F)cc4)c(=O)c3c2)cc1 | i |
| COc1ccc(OC)c(S(=O)(=O)Nc2cnc(N(C)C)nc2)c1 | i |
| Cc1cc(C(=O)Nc2ccc(-n3nnn(C)c3=O)cc2)no1 | i |
| COc1cc(C(=O)Nc2ccc(N3CCCC3=O)c(C)c2)cc(OC)c1OC | i |
| COc1ccc(OC)c(C2c3c(oc4ccc(F)cc4c3=O)C(=O)N2c2cc(C)on2)c1 (centres undefined) | i |
| COc1ccc(-n2c(C)nc3ccc(NC(=O)c4c(F)cccc4Cl)cc3c2=O)cc1 | i |
| O=C(Cn1cnc2ccccc2c1=O)N1CCC(c2nnc(-c3ccco3)o2)CC1 | i |
| O=C(NCCNS(=O)(=O)c1cccs1)c1ccc(NC(=O)C2CCCC2)cc1 | i |
| O=C(Nc1ccc(Br)cc1)c1ccc(N2C(=O)c3ccccc3C2=O)cc1 | i |
| COc1ccc(-c2nonc2NC(=O)COc2cccc(Cl)c2)cc1 | i |
| CCN(CC)c1ccc(C2C(C(=O)OC)=C(C)N=C3SCC(=O)N32)cc1 (centres undefined) | i |
| CCOc1ccccc1NC(=O)Cn1nc(C2CC2)cc1C(=O)N1CCCC1 | i |
| COCCNC(=O)N(Cc1ccsc1)Cc1ccco1 | i |
| CCN(C(=O)c1nnn(-c2ccc(OC)cc2)n1)c1ccccc1C | i |
| O=C(NCCC(O)C1CC1)c1ccc2nsnc2c1 (centres undefined) | i |
| O=C(CCc1ccc(-c2ccc(Cl)cc2)o1)NC1CCCC1 | i |
| Cc1cc(C(=O)Nc2nc(C(=O)Nc3cccnc3)co2)no1 | i |
| CSc1ccc(/C=C2\C=C(CC(=O)NCCc3ccccc3)c3cc(F)ccc32)cc1 | i |
| Cc1cccc(CN(c2cccc(Cl)c2)S(=O)(=O)c2cccn3c(C)nnc23)c1 | i |
| Cn1c(=O)c2c(nc3n2CC(c2ccc(F)cc2)=NN3CC(=O)c2ccccc2)n(C)c1=O | i |
| O=C1CC(C(=O)Nc2ccccc2Cl)n2c(nc3ccccc32)N1 (centres undefined) | i |

Shown field by field: entries from further up
smiles: Cc1cc(C(=O)Nc2nc(C(=O)Nc3cccnc3)co2)no1
  GIRK2 activ: i
smiles: CSc1ccc(/C=C2\C=C(CC(=O)NCCc3ccccc3)c3cc(F)ccc32)cc1
  GIRK2 activ: i
smiles: Cc1cccc(CN(c2cccc(Cl)c2)S(=O)(=O)c2cccn3c(C)nnc23)c1
  GIRK2 activ: i

Next part:
| compound | GIRK2 activ |
| --- | --- |
| O=c1cc(-c2cc(Cl)cc3c2OCOC3)oc2ccc(Cl)cc12 | i |
| O=C(Cn1c(=O)oc2ccccc21)N(Cc1ccsc1)Cc1ccco1 | i |
| CC(=O)Nc1cccc(NC(=O)c2csc(Nc3ccc(S(C)(=O)=O)cc3)n2)c1 | i |
| COC(=O)CCn1c(=O)c2c(nc3n(-c4ccc(C)cc4)c(C)cn23)n(C)c1=O | i |
| CC(C)(C)c1ccc(C(=O)N2CCCCCC2)cc1 | i |
| O=S(=O)(NCCNC/C=C/c1ccc(Br)cc1)c1cccc2cnccc12 | i |
| CN(C)c1ncc(NS(=O)(=O)c2cccs2)cn1 | i |
| CC(C)S(=O)(=O)c1ccc(CC(=O)N2CCC(Oc3cnccn3)CC2)cc1 | i |
| O=C(C1CCN(S(=O)(=O)c2ccc(Cl)cc2)CC1)N1CCN(c2ccccc2)CC1 | i |
| CC(Cc1ccco1)NC(=O)CSCc1ccccc1 (centres undefined) | i |
| O=S(=O)(c1ccccc1)c1nc(S(=O)(=O)c2ccc(Cl)cc2)c(N2CCC(O)CC2)s1 | i |
| Cc1cc(NC(=O)C2CCN(c3ccc(=O)n(C)n3)CC2)n[nH]1 | i |
| O=C(CSc1cc(-n2cccn2)ncn1)Nc1ccc(Br)cc1 | i |
| O=C(Nc1ccccc1)Nc1nnc(-c2ccc3c(c2)OCCO3)o1 | i |
| CC(=O)CC1(O)C(=O)N(CCOc2cccc(C)c2)c2ccc(Cl)cc21 (centres undefined) | i |
| Cc1cccc2sc(N3CC(OC(=O)c4csc(-c5ccccc5)n4)C3)nc12 | i |
| CCOc1ccccc1CNC(=O)c1cn(-c2cccc(Cl)c2)nn1 | i |
| CCOC(=O)N1CCC(NC(=O)CCc2nnc3c(N4CCCCC4)nc4ccccc4n23)CC1 | i |
| COc1ccc(NC(=O)c2ccc(S(=O)(=O)N3CCc4ccccc4C3)cc2)cc1 | i |
| COc1ccc(Cl)cc1NC(=O)NCCN1CCN(S(C)(=O)=O)CC1 | i |
| O=S(=O)(c1ccc2c(c1)CCCC2)N1CCC(Oc2ncccn2)CC1 | i |
| COc1ccc(C(=O)NCC2CCN(c3cnccn3)CC2)cc1 | i |
| O=C(c1ccccc1Cl)N1CCN(c2cc(Nc3ccccn3)ncn2)CC1 | i |
| CC(NC(=O)c1cc(=O)c(OCc2ccc(F)cc2)co1)c1ccccc1 (centres undefined) | i |
| COc1ccc(S(=O)(=O)NCCN2CCN(c3ccccc3OC)CC2)cc1F | i |
| COc1cccc(C2NC(=S)NC(C)=C2C(=O)Nc2cc(C)cc(C)c2)c1 (centres undefined) | i |
| O=S(=O)(NCCOc1ccc(F)cc1)c1ccc(Cl)c(Cl)c1 | i |
| O=C(C1CCN(c2ccc(-c3ccccc3)nn2)CC1)N1CCOCC1 | i |
| O=C(NCCn1ncccc1=O)c1ccccc1Cl | i |
| O=S(=O)(c1cccc(Cl)c1)N1CCC(c2ccccc2)C1 (centres undefined) | i |

Among those listed so far, these contain bromine:
| compound | GIRK2 activ |
| --- | --- |
| Cn1c(=O)c(C(=O)Nc2ccc(Br)cc2F)c(O)c2sccc21 | i |
| O=C(Nc1ccc(Br)cc1)c1ccc(N2C(=O)c3ccccc3C2=O)cc1 | i |
| O=S(=O)(NCCNC/C=C/c1ccc(Br)cc1)c1cccc2cnccc12 | i |
| O=C(CSc1cc(-n2cccn2)ncn1)Nc1ccc(Br)cc1 | i |

The list goes on:
| compound | GIRK2 activ |
| --- | --- |
| COc1ccc(C(=O)Nc2sc3ccccc3c(=O)c2-c2cccs2)cc1OC | i |
| COc1ccc(CNC(=O)CCCCn2c(=O)[nH]c3cc(OC)c(OC)cc3c2=O)cc1 | i |
| Cc1ccsc1-c1nnc(CC(=O)Nc2ccc(OC(F)(F)F)cc2)o1 | i |
| O=C(c1ccc(=O)[nH]c1)N1CCN(Cc2nc3ccccc3[nH]2)CC1 | i |
| COc1ccc(OC)c2[nH]c(=O)c(CCNC(=O)c3ccc(S(=O)(=O)N4CCCCC4)cc3)cc12 | i |
| O=C(Nc1ccc(F)c(Cl)c1)C1CN(C(=O)c2cnccn2)C1 | i |
| O=C(Cn1nc(-n2cccn2)ccc1=O)NCc1ccco1 | i |
| CC(=O)Cn1c(=O)c2c(nc3n2CCN3c2cc(C)ccc2C)n(C)c1=O | i |
| COc1ccc2c(=O)c(Oc3ccc(C(=O)NCCCN4CCOCC4)cc3)coc2c1 | i |
| CC(Cc1ccco1)NC(=O)C(=O)NCc1ccc2c(c1)OCO2 (centres undefined) | i |
| CSc1ccccc1NC(=O)c1csc(-n2cccc2)n1 | i |
| O=C(CN1C(=O)CCC1=O)N1CCOC(c2cc(Cl)cc(Cl)c2)C1 (centres undefined) | i |
| COc1ccc(OC)c(CNC(=O)c2[nH]c3ccccc3c2NC(=O)c2cccc(C)c2)c1 | i |
| CC1(C)COc2ccc(NC(=O)NCc3cccc4ccccc34)cc2NC1=O | i |
| O=c1cccnn1CCNS(=O)(=O)c1ccc(Cl)c(Cl)c1 | i |
| COc1ccc(-c2cc3c(=O)n(CC(=O)Nc4cccc(SC)c4)ccn3n2)cc1 | i |
| Cc1cc(CN2CCC(CNC(=O)C3CCN(S(C)(=O)=O)CC3)CC2)c(C)o1 | i |
| COc1ccccc1/C=C/C(=O)c1cc(Cl)ccc1O | i |
| COc1ccccc1NC(=O)CN1C(=O)NC(c2cccc(Cl)c2)C2=C1COC2=O (centres undefined) | i |
| COCCCn1c(-c2ccc(Br)cc2)nc2oc3ccccc3c(=O)c2c1=O | i |
| CC(C)(C)C(=O)Nc1ccccc1-c1nc2ccccc2[nH]c1=O | i |
| O=C1CCCN1c1ccc(Cn2ccn3nc(-c4ccc(F)cc4)c(CO)c3c2=O)cc1 | i |
| COc1ncccc1C(=O)N1CC(c2nc(-c3cccc(C(F)(F)F)c3)no2)C1 | i |
| CCOc1ccc(N2CCCCn3c2nc2c3c(=O)n(CCCc3ccccc3)c(=O)n2C)cc1 | i |
| CS(=O)(=O)Nc1cccc(NC(=O)c2ccc(-n3cccn3)nn2)c1 | i |
| O=C(NCCN1CCN(c2ccc(F)cc2)CC1)c1ccc(Cl)cc1 | i |
| CC(C)(Oc1ccc(Cl)cc1)C(=O)Nc1cnoc1 | i |
| CCn1cnc2c(-c3ccccc3)cn(CC(=O)Nc3ccccc3C(=O)OC)c2c1=O | i |
| COc1cc(OC)cc(N2C(=O)C3N=NN(c4ccc(C)c(Cl)c4)C3C2=O)c1 (centres undefined) | i |
| Cc1ccc2oc3c(c(=O)c2c1)C(c1cccc([N+](=O)[O-])c1)N(c1nc(C)c(C)s1)C3=O (centres undefined) | i |

Later entries.
| compound | GIRK2 activ |
| --- | --- |
| COc1ccc(-c2csc(CN3CCN(C(=O)C(C)Oc4ccccc4)CC3)n2)cc1 (centres undefined) | i |
| Cn1c(=O)c2c(nc(NCc3ccco3)n2Cc2ccccc2)n(C)c1=O | i |
| O=C(NCCc1ccncc1)c1ccc(Cn2ccnc2)cc1 | i |
| CCN1C(=O)C(C)(C)COc2cc(NC(=O)/C=C/c3cccs3)ccc21 | i |
| Cc1nc(-c2ccccc2)sc1CNC(=O)NCc1ccc(Cl)cc1 | i |
| COc1ccc(Cc2nnc(NC(=O)Nc3cccc(C(F)(F)F)c3)o2)cc1 | i |
| CC1Oc2ccc(-c3csc(NC(=O)c4ccc5c(c4)OCO5)n3)cc2N(C)C1=O (centres undefined) | i |
| CCOc1cccc2cc(C(=O)NCCc3ccc(OC)c(OC)c3)c(=O)oc12 | i |
| COC(=O)CSc1nnc(-c2ccc(S(=O)(=O)N3CCCCCC3)cc2)o1 | i |
| O=C(NC1CCCC1)c1nnn(-c2ccc(NC(=O)c3cccs3)cc2)n1 | i |
| CCOc1cc(/C=C(\C#N)c2nc(-c3ccc(OC)c(OC)c3)cs2)ccc1OC(C)C | i |
| Cc1cc(CCNC(=O)COc2ccc(C(C)C)cc2)on1 | i |
| Cn1c(NC(=O)c2ccccc2)c(-c2ccccn2)c(=O)c2ccccc21 | i |
| O=C(CSc1nnc2ccc3ccccc3n12)c1ccc2c(c1)OCO2 | i |
| N#Cc1ccsc1NC(=O)c1ccc2nsnc2c1 | i |
| O=C(NCc1ccc(OCc2ccccc2)cc1)c1coc(NC(=O)C2CC2)n1 | i |
| O=C(NCC1(CO)CC1)C1(c2ccc(Cl)cc2)CCCC1 | i |
| COc1ccc(OCC(=O)Nc2ccc3c(=O)c4ccccc4oc3c2)cc1 | i |
| CCOc1ccc(C(=O)N2CCN(c3cc(-n4cccc4)nc(C)n3)CC2)cc1 | i |
| O=C(Cc1ccc(F)cc1)NCCCS(=O)(=O)N1CCN(c2ncccn2)CC1 | i |
| CNC(=O)C1Cc2ccccc2N1C(=O)c1ccc(OC)cc1 (centres undefined) | i |
| Cc1ccc(NC(=O)CSc2cc(-n3cccn3)ncn2)cc1 | i |
| O=C1C2N=NN(CC(=O)N(c3ccccc3)c3ccccc3)C2C(=O)N1c1ccc(Cl)cc1 (centres undefined) | i |
| COc1ccccc1N1COc2ccc3c(c2C1)O/C(=C\c1cccs1)C3=O | i |
| O=C(CSc1ccc(F)cc1)NCC(F)(F)F | i |
| Cc1ccc(-c2ccc(N3CCN(C(=O)Nc4ccccc4F)CC3)nn2)c(C)c1 | i |
| CSc1ccccc1C(=O)N1CCC(CSCc2ccco2)CC1 | i |
| CC(=O)Cn1c(=O)c2c(nc3n2CCCN3CCc2ccccc2)n(C)c1=O | i |
| Fc1ccc(-c2c(-c3ccncc3)[nH]c3nccnc23)cc1 | i |
| CS(=O)c1ccc(/C=C2\C=C(CC(=O)O)c3cc(F)ccc32)cc1 (centres undefined) | i |

Carrying on:
| compound | GIRK2 activ |
| --- | --- |
| O=C(CCCn1nc(-c2cccnc2)ccc1=O)Nc1nc2ccccc2s1 | i |
| CCCNC(=O)c1csc(Nc2ccc(S(C)(=O)=O)cc2)n1 | i |
| Cc1nc(NC(=O)C(C)Cn2nc(-c3cccs3)ccc2=O)sc1C(=O)N(C)C (centres undefined) | i |
| CCOc1ccccc1NC(=O)N1CCC(Oc2nc3ccc(F)cc3s2)CC1 | i |
| COc1cc(C(C)=O)ccc1OCC(=O)N1CCN(c2ncncc2C)CC1 | i |
| Cc1nn(-c2nc3c(c(=O)n(CC(N)=O)c(=O)n3C)n2Cc2ccc(F)cc2)c(C)c1C | i |
| COc1ccccc1NC(=O)Cn1ccn2nc(-c3ccccc3)cc2c1=O | i |
| Cc1cccc(N2CCN(c3nccnc3SCC(=O)N(C)c3ccc(F)cc3)CC2)c1C | i |
| CC(=O)Nc1ccc(NC(=O)CSc2cc(NCc3ccccc3Cl)ncn2)cc1 | i |
| O=C(CC1=C/C(=C\c2ccc3ccccc3c2)c2ccc(F)cc21)NCc1ccccc1 | i |
| Cc1cccc(NC(=O)c2ccc(S(=O)(=O)N3CCCCC3)cc2)c1C | i |
| COc1cc(Nc2c(C(=O)N3CCOCC3)cnc3nc(C)ccc23)cc(OC)c1OC | i |
| CC(C)Oc1ccc(C(=O)NCC2(c3cccs3)CCOCC2)cc1 | i |
